GIRK2 activ = GIRK2 channel activation | HEK293-GIRK2 thallium flux, Thallos fluorescence | calls only for hits at 25 µM | P48051 | actives 0.05% (n = 63,000);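 active means among the strongest 0.2% of first-round signals and kept after retests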;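 further: first round at about 10 µM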
Target sequence (P48051 whole entry, looked up): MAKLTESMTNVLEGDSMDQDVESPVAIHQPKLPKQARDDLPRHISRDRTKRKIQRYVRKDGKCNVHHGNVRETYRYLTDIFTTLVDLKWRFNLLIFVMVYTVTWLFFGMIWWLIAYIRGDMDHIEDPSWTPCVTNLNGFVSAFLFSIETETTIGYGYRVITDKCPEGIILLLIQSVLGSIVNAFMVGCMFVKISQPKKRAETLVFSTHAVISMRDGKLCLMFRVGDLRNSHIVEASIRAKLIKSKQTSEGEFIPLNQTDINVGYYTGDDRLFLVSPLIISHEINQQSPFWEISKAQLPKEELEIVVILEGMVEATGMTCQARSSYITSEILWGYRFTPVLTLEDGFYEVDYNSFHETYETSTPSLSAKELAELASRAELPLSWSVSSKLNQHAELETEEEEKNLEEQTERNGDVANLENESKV
Calls only. Some of the compounds tested; count on the stated rates, not on these rows.

For O=C(c1ccco1)N1CCN(C2=NN=C(c3cccs3)CS2)CC1 the results were GIRK2 activ inactive.
`Cc1ccc(NC(=O)c2cn(Cc3ccc(NC(=O)C(C)C)cc3)cn2)c(Cl)c1` gave GIRK2 activ inactive.
Screening COc1ccc2c(=O)c(Oc3ccccc3Br)c(C)oc2c1 returned GIRK2 activ inactive.
For COc1ccc(OCCn2c(CO)nc3ccccc32)cc1 the results were GIRK2 activ inactive.
`O=C(Nc1ccccc1C(F)(F)F)N1CCN(S(=O)(=O)C2CC2)CC1` gave GIRK2 activ inactive.
CC1CCN(C(=O)C2CCN(S(=O)(=O)c3ccccc3)CC2)CC1 was read as GIRK2 activ inactive.
`O=C(Nc1sccc1-c1nc2ccccc2s1)c1cc(-c2ccccc2)on1` gave GIRK2 activ inactive.
`COc1ccc(Cn2c(=O)[nH]c3cc(-c4nc(-c5ccc6c(c5)OCO6)no4)ccc3c2=O)cc1` gave GIRK2 activ inactive.
Screening COc1cccc(C(=O)Nc2ccc3c(c2)CCC(=O)N3)c1OC returned GIRK2 activ inactive.
`O=C(NCC(=O)N1CCn2c1nc1ccccc12)c1ccc(=O)[nH]c1` gave GIRK2 activ inactive.
Screening COc1ccc(-c2noc(CN3N=NC4C(=O)N(c5ccc(OC)c(OC)c5)C(=O)C43)n2)cc1OC (stereo not given) returned GIRK2 activ inactive.
`O=C(Nc1cccc2nsnc12)C1(c2ccccc2)CCOCC1` gave GIRK2 activ inactive.
For CCCCN(C)C(=O)Cn1cc(-c2nc(-c3ccc(OC)cc3)no2)ccc1=O the results were GIRK2 activ inactive.
Cc1cccc(OCc2ccc(-c3nc(C#N)c(NCCN4CCOCC4)o3)o2)c1 was read as GIRK2 activ inactive.
For COC(=O)Cn1c(=O)c2c(nc3n(CC(C)C)c(C)cn23)n(C)c1=O the results were GIRK2 activ inactive.
Screening Cc1cc(NC(=O)c2ccc(Cl)s2)n(-c2nc3c(F)cccc3s2)n1 returned GIRK2 activ inactive.
Screening Cc1cccc(CS(=O)(=O)N2C3CCC2COC3)c1 returned GIRK2 activ inactive.
Screening Cc1nc(-c2ccccc2Cl)sc1CNC(=O)/C=C/c1ccco1 returned GIRK2 activ inactive.
Cc1ccc2c(c1)OCC(=O)N2Cc1nc(-c2ccc(Cl)cc2)no1 was read as GIRK2 activ inactive.
CS(=O)(=O)c1ccc(NCCCSc2nnc(-c3cccs3)o2)c([N+](=O)[O-])c1 was read as GIRK2 activ inactive.
Screening COc1ccc(Cl)cc1NC(=O)N1CC(c2nc3ccc(C)cc3[nH]2)C1 returned GIRK2 activ inactive.
O=C(Nc1ccccc1Cl)c1ccc(=O)n(Cc2cccc([N+](=O)[O-])c2)c1 was read as GIRK2 activ inactive.
Screening Cc1ccc(-n2ncc3c(C(C)C)nnc(SCC(=O)N4CCOCC4)c32)cc1C returned GIRK2 activ inactive.
`CC(=O)Nc1cc(C(=O)N2CCCC2)cn(C)c1=O` gave GIRK2 activ inactive.
`O=S(=O)(C1CC1)N1CCC(c2nnc(C(F)(F)F)o2)CC1` gave GIRK2 activ inactive.
COc1ccccc1-c1coc2cc(Nc3ccc(C)cc3)ccc2c1=O was read as GIRK2 activ inactive.
For CC(=O)c1ccc(NC(=O)c2cc3c(cc2Br)OCCO3)cc1 the results were GIRK2 activ inactive.
`CCCC(=O)N1CCN(C(=O)C(NC(=O)c2ccc(F)cc2)S(=O)(=O)c2ccc(F)cc2)CC1` (stereo not given) gave GIRK2 activ inactive.
`CCCCCCCCCCCCCCCC(=O)OCC` gave GIRK2 activ inactive.
`O=C(Nc1cccs1)N1CC(c2nc(C3CC3)no2)C1` gave GIRK2 activ inactive.
For COc1ccc(S(=O)(=O)N2CCCOC2CNC(=O)C(=O)NCc2ccccc2C)cc1C (stereo not given) the results were GIRK2 activ inactive.
CS(=O)(=O)c1ccc(C(=O)Nc2nc(-c3cc4ccccc4o3)cs2)cc1 was read as GIRK2 activ inactive.
`Cc1ccc(C)c(S(=O)(=O)c2cnc(SCC(=O)Nc3cccc(C(F)(F)F)c3)[nH]c2=O)c1` gave GIRK2 activ inactive.
Screening Cc1ccc(-c2nc(Cn3nnc(C(=O)NCc4ccc(F)cc4)c3C)c(C)o2)cc1 returned GIRK2 activ inactive.
For CCCc1nnsc1C(=O)Nc1ncc(C#N)s1 the results were GIRK2 activ inactive.
CS(=O)(=O)N1CCC(C(=O)NCC2CCN(Cc3ccco3)CC2)CC1 was read as GIRK2 activ inactive.
Screening Cc1ccc(CNC(=O)c2ccc(-n3ccnc3SCC(=O)Nc3c(C)cccc3C)cc2)o1 returned GIRK2 activ inactive.
`O=C(Cn1cc(S(=O)(=O)N2CCCCC2)ccc1=O)N1CCc2ccccc21` gave GIRK2 activ inactive.
`O=C(Cn1c(-c2ccncc2)nc2ccccc21)N1CCN(c2ccccc2)CC1` gave GIRK2 activ inactive.
Screening Cc1cc(F)ccc1S(=O)(=O)NCC(c1ccsc1)N1CCOCC1 (stereo not given) returned GIRK2 activ inactive.
COC(=O)c1ccc2c(=O)n(-c3ccc(F)cc3)c(N3CCOCC3)nc2c1 was read as GIRK2 activ inactive.
`O=C(CN1CCN(C(=O)c2ccco2)CC1)c1ccco1` gave GIRK2 activ inactive.
`O=C(Nc1ccc(F)cc1)c1ccc2c(=O)n(-c3ccccc3)c(=O)[nH]c2c1` gave GIRK2 activ inactive.
Screening O=C(Nc1nc2c(s1)CN(C(=O)/C=C/c1ccco1)CC2)c1cnccn1 returned GIRK2 activ inactive.
For CC(=O)N1CCc2cc(S(=O)(=O)NCCOc3ccc4nnc(C)n4n3)ccc21 the results were GIRK2 activ inactive.
COCCc1noc(C2CCN(C(=O)Cn3ccc4ccccc43)CC2)n1 was read as GIRK2 activ inactive.
`O=C(NCc1ccc(F)cc1)Nc1ccccc1NC(=O)c1ccccc1C(F)(F)F` gave GIRK2 activ inactive.
`CC(C)CNC(=O)CC(NCC(C)C)C(=O)O` (stereo not given) gave GIRK2 activ inactive.
For Cc1ccc(OCC(=O)NC(C)c2ccccc2)c(C)c1 (stereo not given) the results were GIRK2 activ inactive.
CCOC(=O)c1c(C)n(C)c2ccc(OCC(O)CN3CCc4ccccc4C3)cc12 (stereo not given) was read as GIRK2 activ inactive.
Cc1cccc(NC(=O)CSc2c(C(C)C)cnc3c2c(=O)n(C)c(=O)n3C)c1C was read as GIRK2 activ inactive.
Screening Cc1noc(C)c1CC(=O)Nc1nc(-c2ccco2)cs1 returned GIRK2 activ inactive.
CCOc1ccccc1-c1nc(CSc2nc3c(c(=O)[nH]2)CN(Cc2ccccc2)CC3)c(C)o1 was read as GIRK2 activ inactive.
For O=C(Nc1nc2c(s1)CN(C(=O)c1ccc(=O)[nH]n1)CC2)c1cccs1 the results were GIRK2 activ inactive.
`COc1ccc(NC(=O)Nc2nc(CCC(=O)NCc3ccc(F)cc3)cs2)cc1` gave GIRK2 activ inactive.
For CNC(=O)CSc1ncc(-c2cccc([N+](=O)[O-])c2)n1-c1ccccc1 the results were GIRK2 activ inactive.
Screening CCOc1cccc2cc(C(=O)NCc3sc(-c4ccccc4F)nc3C)c(=O)oc12 returned GIRK2 activ inactive.
For Cc1noc(-c2ccn3c(=O)n(CC(=O)c4ccc5c(c4)OCO5)nc3c2)n1 the results were GIRK2 activ inactive.
COc1cc(S(=O)(=O)NCCc2ccccc2)ccc1Cl was read as GIRK2 activ inactive.
`Cc1ccccc1-c1ccc(N2CCN(C(=O)NCc3ccccc3)CC2)nn1` gave GIRK2 activ inactive.

A stretch from further up, as a working copy:
`O=C(CN1CCN(C(=O)c2ccco2)CC1)c1ccco1` gave GIRK2 activ inactive.
`O=C(Nc1ccc(F)cc1)c1ccc2c(=O)n(-c3ccccc3)c(=O)[nH]c2c1` gave GIRK2 activ inactive.
Screening O=C(Nc1nc2c(s1)CN(C(=O)/C=C/c1ccco1)CC2)c1cnccn1 returned GIRK2 activ inactive.
For CC(=O)N1CCc2cc(S(=O)(=O)NCCOc3ccc4nnc(C)n4n3)ccc21 the results were GIRK2 activ inactive.
COCCc1noc(C2CCN(C(=O)Cn3ccc4ccccc43)CC2)n1 was read as GIRK2 activ inactive.
`O=C(NCc1ccc(F)cc1)Nc1ccccc1NC(=O)c1ccccc1C(F)(F)F` gave GIRK2 activ inactive.
`CC(C)CNC(=O)CC(NCC(C)C)C(=O)O` (stereo not given) gave GIRK2 activ inactive.
For Cc1ccc(OCC(=O)NC(C)c2ccccc2)c(C)c1 (stereo not given) the results were GIRK2 activ inactive.
CCOC(=O)c1c(C)n(C)c2ccc(OCC(O)CN3CCc4ccccc4C3)cc12 (stereo not given) was read as GIRK2 activ inactive.
Cc1cccc(NC(=O)CSc2c(C(C)C)cnc3c2c(=O)n(C)c(=O)n3C)c1C was read as GIRK2 activ inactive.
Screening Cc1noc(C)c1CC(=O)Nc1nc(-c2ccco2)cs1 returned GIRK2 activ inactive.
CCOc1ccccc1-c1nc(CSc2nc3c(c(=O)[nH]2)CN(Cc2ccccc2)CC3)c(C)o1 was read as GIRK2 activ inactive.
For O=C(Nc1nc2c(s1)CN(C(=O)c1ccc(=O)[nH]n1)CC2)c1cccs1 the results were GIRK2 activ inactive.
`COc1ccc(NC(=O)Nc2nc(CCC(=O)NCc3ccc(F)cc3)cs2)cc1` gave GIRK2 activ inactive.

(listing goes on)
Screening Cc1nc(-c2cccs2)sc1CNS(=O)(=O)c1ccc(NC(=O)C(C)C)cc1 returned GIRK2 activ inactive.
O=S(=O)(Cc1ccc(C(F)(F)F)cc1)N1CCC2(CC1)OCCS2 was read as GIRK2 activ inactive.
Cc1ccc(NC(=O)Cn2nc(Nc3ccccc3)c(S(=O)(=O)c3ccccc3)c2N)c(C)c1 was read as GIRK2 activ inactive.
`COc1ccc(C(=O)Cn2nc(-c3ccccc3)c3sc(N4CCOCC4)nc3c2=O)cc1OC` gave GIRK2 activ inactive.
For COC(CNS(C)(=O)=O)c1ccsc1 (stereo not given) the results were GIRK2 activ inactive.
Screening COc1ccc(-c2nnc(NC(=O)c3cc(C)n(C)n3)o2)cc1OC returned GIRK2 activ inactive.
Cn1c(=O)n(CC(N)=O)c(=O)c2c1nc1n(-c3ccccc3Cl)c(-c3ccccc3)cn21 was read as GIRK2 activ inactive.
For COc1ccc(-c2ccc(=O)n(CCNS(=O)(=O)c3cc(C)c(C)cc3C)n2)cc1 the results were GIRK2 activ inactive.
For CCOc1cc(C2NC(=S)NC(C)=C2C(=O)Nc2cccc(Cl)c2)ccc1O (stereo not given) the results were GIRK2 activ inactive.
For CSc1ccccc1C(=O)Nc1nnc(-c2sc(C)nc2C)o1 the results were GIRK2 activ inactive.
`Cc1ccccc1OCC(=O)NC1CC(=O)N(C2CC2)C1` (stereo not given) gave GIRK2 activ inactive.
`O=C(c1cccc(Br)c1)N1CCC(COCc2ccc(Cl)cc2)CC1` gave GIRK2 activ inactive.
`O=C(CCCCCCCCc1ccc(O)cc1)c1c(O)cccc1O` gave GIRK2 activ inactive.
Screening CCOC(=O)c1ccc(NC(=O)c2nnn(-c3ccc(CC)cc3)c2C)cc1 returned GIRK2 activ inactive.
For CCOC(=O)N1CCN(C(=O)C2CCCN(Cc3nc(-c4cccs4)no3)C2)CC1 (stereo not given) the results were GIRK2 activ inactive.
`CC(C)(C)c1ccc(C(=O)Nc2c3c(nn2CC(=O)NCC2CCCO2)CSC3)cc1` (stereo not given) gave GIRK2 activ inactive.
C=C(C)Cn1c(NCc2ccco2)nc2c1c(=O)[nH]c(=O)n2C was read as GIRK2 activ inactive.
Screening Cc1ccccc1-c1noc(Cn2c(=O)n(CCc3ccccc3)c(=O)c3ccccc32)n1 returned GIRK2 activ inactive.
For COc1ccc(F)cc1S(=O)(=O)Nc1cc2c3c(c1)CC(=O)N3CCC2 the results were GIRK2 activ inactive.
Screening Cc1cc(C(O)CCNS(=O)(=O)c2c(F)cccc2F)c(C)o1 (stereo not given) returned GIRK2 activ inactive.
Screening O=C(Nc1cc(F)ccc1F)c1ccc(S(=O)(=O)N(Cc2ccco2)C2CC2)o1 returned GIRK2 activ inactive.
Screening O=S(=O)(NCc1ccccn1)c1ccc(C2CCCCC2)cc1 returned GIRK2 activ inactive.
`O=C(NCC1CCCO1)NC1(c2nc(-c3ccccc3)no2)CCCCC1` (stereo not given) gave GIRK2 activ inactive.
For Cc1ccc(NC(=O)COc2ccccc2)cc1N1CCCC1=O the results were GIRK2 activ inactive.
`CCCc1nnsc1C(=O)NCc1cc(C)oc1C` gave GIRK2 activ inactive.
O=C(NCCn1cnc(-c2ccccc2)cc1=O)c1ccc(-n2cccc2)cc1 was read as GIRK2 activ inactive.
Screening Cc1ccc2nc(NC(=O)CN3CCC(c4cccs4)CC3)sc2c1 returned GIRK2 activ inactive.
CCOC(=O)Nc1cc(C)nn1-c1nc(-c2cccc(OC)c2)cs1 was read as GIRK2 activ inactive.
CCC(C)/C=C(C)/C=C/C1=CC2=C(Cl)C(=O)C(C)(O)C(O)C2=CO1 (stereo not given) was read as GIRK2 activ inactive.
For CC(C)c1ccc(S(=O)(=O)N2CCCC(C(=O)O)C2)cc1 (stereo not given) the results were GIRK2 activ inactive.
For COc1nn(C)cc1C(=O)Nc1nnc(SCC(=O)Nc2cccc(C(F)(F)F)c2)s1 the results were GIRK2 activ inactive.
O=C(NCCC1CCCCN1S(=O)(=O)c1cccs1)C1(c2cccs2)CCCC1 (stereo not given) was read as GIRK2 activ inactive.
For O=C(Cn1cnc2ccccc2c1=O)N1CCC(COCc2ccc(Cl)cc2)CC1 the results were GIRK2 activ inactive.
COc1ccccc1Oc1coc2cc(OCC=C(C)C)ccc2c1=O was read as GIRK2 activ inactive.
O=C(Nc1nc2c(s1)CN(C(=O)c1ccc(OC(F)(F)F)cc1)CC2)C1CCCO1 (stereo not given) was read as GIRK2 activ inactive.
For O=C(c1ccc(Br)cc1)N1CCCc2ccccc21 the results were GIRK2 activ inactive.
Screening COc1cc(-c2nc(CSc3nc(-c4ccncc4)cc(=O)[nH]3)c(C)o2)cc(OC)c1OC returned GIRK2 activ inactive.
For O=S(=O)(Nc1nc2ccccc2nc1NCc1ccccc1)c1cccs1 the results were GIRK2 activ inactive.
`O=c1[nH]cnc2c(-c3ccc(Br)cc3)csc12` gave GIRK2 activ inactive.
`O=C(/C=C/c1ccc2c(c1)OCO2)Nc1cc(-n2cccn2)ncn1` gave GIRK2 activ inactive.
Cc1ccc(OCC(O)Cn2c(N3CCCC(C)C3)nc3c2c(=O)n(C)c(=O)n3C)cc1C (stereo not given) was read as GIRK2 activ inactive.
`CCOc1ccc(-c2cc(C(=O)N3CCC(NC(=O)c4ccc(C)cc4)CC3)[nH]n2)cc1` gave GIRK2 activ inactive.
